# RN4220 kill – S. aureus RN4220 growth inhibition | 330,000 tested, 0.33% active | OD600, 16 h | inhibition, % (test concentration not listed);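 active = z-score of -3 or lower and OD600 up to 0.18 on both plates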;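 also: plate controls were untreated cells for no effect and reference antibiotic for full effect; stock transfer was 100 nL into about 80 µL; one replicate is shown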
# ugtP null kill – compounds lethal to S. aureus RN4220 ugtP deletion mutant | OD600 growth, 16 h; some inactives read as strong as hits | growth inhibition, % (no concentration beside the values) | 330,000 tested, 0.54% active;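 active = z-score under -3 and OD600 up to 0.15 on both plates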;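 also: plate controls were untreated wells for no effect and antibiotic for full effect; wells of about 80 µL received 100 nL stock; the first replicate is given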
# BJeLR viability – BJeLR cell viability loss | inhibition, % (no concentration beside the values) | 300,000 tested, 0.17% active | BJeLR (HRASV12) viability, CellTiter-Glo ATP luminescence, 48 h; reference of the scale not given here;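 active = replicate mean above 50%; inconclusive = above 50% but judged a plate artefact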;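 also: 50 nL library stock added to about 25 µL; numbers are from one replicate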
# PrP 5UTR inh – inhibition of PrP 5' UTR reporter expression. cell-based PrP 5' UTR mRNA reporter, plate reader. inhibition, % (concentration not given with the values). 340,000 tested, 0.35% active;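 active = every replicate at 50% or more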;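 also: 0 = median of the neutral control wells; tested in H4 reporter cells; numbers are from one replicate; inactives centre near -14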
# Bead autofluor – compound fluorescence in toxin protease inhibitor counterscreen. compound autofluorescence counterscreen, microsphere flow cytometry; hits give high values. fluorescence intensity (concentration not given with the values). 360,000 tested, 3.1% active. AID 624483;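 active = at least 3 SD above the mean of all compounds, about 16000 in these data; inconclusive = too few beads counted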;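 also: 100 nL of 1 mM stock went into each well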
# Mtb hypoxia inh – reduces hypoxia-regulated biosensor signal in M. tuberculosis; M. tuberculosis hypoxia-regulated fluorescent reporter, fluorescence; fluorescence inhibition, % (concentration not given with the values); 300,000 tested, 0.1% active;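 active = 35 to 45% if threefold the growth effect, above 45% if 1.5-fold the growth effect; inactive = the rest, general growth blockers included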;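 also: wells of about 50 µL received 100 nL stock; 0% = vehicle wells and 100% = reference inhibitor wells; whole bacteria with a GFP reporter of the hypoxia response; strong numbers were not always called active; many hits fall short of the cut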
# Mtb hypoxia inh growth – recorded beside Mtb hypoxia inh, whose call it bears; growth inhibition, %; measured here: M. tuberculosis growth (absorbance);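 0% = vehicle and 100% = reference antibiotic; read after six days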
# The depositor's hits bear a star; u = inconclusive; x = no result given; & = joins results of further samples. Random draw from the library. Share with any hit: about 4.1%.
# Start of the listing, in advance, 6 compounds:
SMILES,RN4220 kill,ugtP null kill,BJeLR viability,PrP 5UTR inh,Bead autofluor,Mtb hypoxia inh,Mtb hypoxia inh growth
Cc1ccccc1-c1nnn(CC(=O)Nc2ccc3c(c2)OCCO3)n1,-7.4,10,-2,-14,4330,14,12
COc1ccccc1C(=O)COC(=O)CSC(C)C(=O)Nc1cc(C)on1 (configuration not stated),5.9,3,3,-7,5882,-2,-4
Cn1c(Cc2cccs2)nnc1SCC(=O)Nc1ccccc1,-1.4,-1,-24,-26,5424,8,0
CN(C)S(=O)(=O)c1ccc(NC(=S)NC(=O)C2CCC2)cc1,5.8,37,3,-22,x,0,-2
CCOC1OC(C(N)=O)=CC(c2ccccc2)C1CCCO (configuration not stated),2.8&5.1,-8&-5,x,x,x,11&9,13&11
COc1ccc(N(CC(=O)NC2CCCCC2)C(=O)CNC(=O)c2cccs2)cc1OC,4.5,17,8,-16,4335,-8,-1

# Main list, from the start:
SMILES,RN4220 kill,ugtP null kill,BJeLR viability,PrP 5UTR inh,Bead autofluor,Mtb hypoxia inh,Mtb hypoxia inh growth
Cc1ccccc1-c1nnn(CC(=O)Nc2ccc3c(c2)OCCO3)n1,-7.4,10,-2,-14,4330,14,12
COc1ccccc1C(=O)COC(=O)CSC(C)C(=O)Nc1cc(C)on1 (configuration not stated),5.9,3,3,-7,5882,-2,-4
Cn1c(Cc2cccs2)nnc1SCC(=O)Nc1ccccc1,-1.4,-1,-24,-26,5424,8,0
CN(C)S(=O)(=O)c1ccc(NC(=S)NC(=O)C2CCC2)cc1,5.8,37,3,-22,x,0,-2
CCOC1OC(C(N)=O)=CC(c2ccccc2)C1CCCO (configuration not stated),2.8&5.1,-8&-5,x,x,x,11&9,13&11
COc1ccc(N(CC(=O)NC2CCCCC2)C(=O)CNC(=O)c2cccs2)cc1OC,4.5,17,8,-16,4335,-8,-1
O=c1c(Cl)c(N2CCN(S(=O)(=O)c3ccc(F)cc3)CC2)cnn1-c1cccc(Cl)c1,0.6,-6,-4,-21,8970,-1,8
Cc1ccccc1C(=O)Nc1ccccc1C(=O)N/N=C\c1ccco1,x,x,0,5,8516,x,x
O=C(CSc1nc2cccnc2n1Cc1ccccc1)NC1CCCCC1,3.2,7,-3,-4,3795,x,x
Cc1nc2nc[nH]n2c(=O)c1NS(=O)(=O)c1ccc(F)cc1,6.6,10,0,-4,4507,13,4
Clc1cccc(CSc2nnc(-c3sccc3-n3cccc3)o2)c1,13,6,-5,-4,3531,x,x
Cc1ccc(CNc2cc(-c3nn4c(C)nnc4s3)ccc2C)s1,3.8,-18,-1,-14,7749,5,2
COC(=O)C1=C(C)N=C2SCCC(=O)N2C1c1ccc(C(=O)OC)cc1 (configuration not stated),0.7,8,1,-2,24822*,4,6
Nc1nc(OCC2CCCCC2)c2[nH]cnc2n1,2.5,-4,3,-2,5531,4,4
O=C1CCC(C(=O)N(Cc2ccco2)C2(C(=O)NC3CCCC3)CCCCC2)N1 (configuration not stated),-2.3,6,4,-29,4078,x,x
COCCNC(=O)c1ccc(C)c(S(=O)(=O)Nc2ccc(C)cc2)c1,0.7,3,-6,x,11020,0,12
O=C(N/N=C/c1ccoc1)c1ccc(Br)cc1,x,x,-11,-40,4466,x,x
COc1cccc(C2=CC(=O)CC(C)(C)C2)n1,10,-1,17,-16,3670,5,9
O=C(NC1CCCc2ccccc21)C1CCN(S(=O)(=O)c2cccc3nsnc23)CC1 (configuration not stated),-1.5,1,3,-2,3821,x,x
Nc1ccccc1C#Cc1ccc([N+](=O)[O-])cc1,4.4,-12,2,-53,4592,12,-1
O=C(Oc1ccc([N+](=O)[O-])cc1)c1ccc2ccccc2n1,6.4,12,-5,-7,10741,1,3
Cc1cc2ncn(S(=O)(=O)N3CCCCC3)c2cc1C,2.3,-11,4,-17,6221,3,0
CCOC(=O)C1=C(COC(=O)/C=C/c2ccc([N+](=O)[O-])cc2)NC(=O)NC1C (configuration not stated),-5.3,-15,x,-14,u,-7,-2
O=C(CCC(=O)N1CCc2ccccc21)Nc1ccccc1,1.6,0,11,-36,4000,13,10
CCCCn1c(N)c(N(CCOC)C(=O)c2ccc(Br)o2)c(=O)[nH]c1=O,0.3,-2,7,-14,6286,2,-4
SMILES,RN4220 kill,ugtP null kill,BJeLR viability,PrP 5UTR inh,Bead autofluor,Mtb hypoxia inh,Mtb hypoxia inh growth
O=C(NCCc1ccc(F)cc1)c1cc2ccccc2oc1=O,2.5,-2,-6,-19,5640,-3,-6
Cc1nc(SCC(=O)NCc2ccc(F)cc2)c2c(=O)n(C)c(=O)n(C)c2n1,16,5,10,-5,6626,-5,-2
CC1(C(=O)O)CCC(C(=O)Nc2ccc(OC(F)(F)Cl)cc2)C1(C)C (configuration not stated),3.6,8,-4,x,3086,-11,4
COc1cc2c(C(=O)N3CCN(C)CC3)c(C)oc2cc1Br,6.1,1,11,-13,19992*,4,8
Cc1nn(-c2ccccc2)c2c1C(O)n1c(nc3ccccc31)S2 (configuration not stated),2.6,5,11,-21,9721,15,11
CC(C)C(=O)Nc1ccc(C(=O)N2CCN(C(=O)c3ccco3)CC2)cc1,2.4,4,1,x,x,1,-6
Cc1ccc(C(C)C)c(OCC(=O)c2c(O)c3ccccc3oc2=O)c1,86*,86*,5,-28,2247,14,1
CC(C)(C)NC(=O)NC(=O)CSc1ccc(S(=O)(=O)N2CCOCC2)cn1,4.3,-2,x,-9,3064,-1,3
Cc1ccc(S(=O)(=O)N2CCN(C(=O)C(C)Cn3cncn3)CC2)cc1C (configuration not stated),1.5,13,1,-1,3635,5,5
Cc1cc2c(NCc3ccccc3)ncnc2s1,3.5,-6,5,-1,3380,-4,-5
CC1CN(S(=O)(=O)c2cccc(C(=O)N(C)C3CCN(C)CC3)c2)CC(C)O1 (configuration not stated),1.5,3,x,-4,3385,1,4
COc1cccc(C(=O)N2c3cc(C)ccc3OCC2C(C)(C)C)c1 (configuration not stated),6.6,14,-9,-23,3847,4,2
Oc1c(Cl)cc(Cl)cc1/C=N/c1nccs1,x,x,-2,-27,3037,x,x
CC(=O)c1ccc(N2Cc3ccccc3C2=NC(=O)c2cccs2)cc1,4.5,14,4,-71,2624,0,5
CC(=O)N1N=C(c2cccc(Cl)c2)OC1c1ccc(C(C)C)cc1 (configuration not stated),7.1,-10,-5,-37,5923,17,3
COc1cccc(OCC(=O)O)c1,0.7,3,-1,-51,3935,12,-1
COc1ccc(-c2[nH]ncc2CN2CCN(c3ccc(F)cc3)CC2)cc1,-2.5,-1,-2,-62,5197,-1,8
Cn1cnc2cc(NC(=O)COc3ccccc3)ccc21,4.6,5,-9,-48,2939,3,1
COc1ccc(NC(=O)C2CCCN(C(=O)Nc3ccc(F)cc3)C2)cc1 (configuration not stated),x,x,-3,-16,5483,x,x
Cc1ccc(-c2nc(-c3ccncc3)no2)c(C)c1,6.7,-7,2,-62,3716,-4,1
COc1ccc(C2/C=C\CN(C(=O)NC34CC5CC(CC(C5)C3)C4)CC(=O)N2Cc2ccc(F)cc2)cc1 (configuration not stated),x,x,10,3,2912,x,x
Cc1ccc(NC(=O)CCC(=O)N2CCC(C)CC2)c([N+](=O)[O-])c1,2.7,3,-25,3,3844,1,-2
Cc1ccc(C(=O)NC2(O)C(=O)c3ccccc3C2=O)cc1C,-0.2,-3,-10,-9,3868,2,-9
CCn1c(=N)n(CC(=O)c2ccco2)c2ccccc21,2.2,-2,-1,-14,u,4,2
CC(C)(C)N(CC#CCC(O)(c1ccccc1)C1CCCC1)CCO (configuration not stated),2.1,0,5,-25,4978,1,-3
SMILES,RN4220 kill,ugtP null kill,BJeLR viability,PrP 5UTR inh,Bead autofluor,Mtb hypoxia inh,Mtb hypoxia inh growth
COc1ccc(CNCCc2ccc(Cl)cc2)cc1OCc1ccccc1,-9.6,-18,-2,-16,4696,-12,6
CC(C)CNc1c(N)n(CC(C)C)c(=O)[nH]c1=O,4.2,8,x,-12,4242,11,9
CCOC(=O)c1ccc(Nc2nc(C)nc3c2nnn3Cc2ccccc2)cc1,0.7,-17,2,-18,3978,0,8
C/C(CCc1ccc2c(c1)OCO2)=N\N=C1\NC(=O)CC(C(=O)Nc2ccccc2)S1 (configuration not stated),x,x,-2,-24,11104,x,x
NNC(=O)c1ccc(CSc2nc3ccccc3s2)cc1,5.1,-10,11,-33,4466,2,-2
CN(C)S(=O)(=O)c1ccc(N2CCCC2)c(C(=O)OCC(=O)NC2(C#N)CCCCC2)c1,2.5,4,1,-8,6523,6,-11
Cc1c(C#N)c2ccccc2n1CC(=O)NC(C)c1ccccc1 (configuration not stated),4.8,-3,6,-18,15884,7,5
Cc1ccc(NN=C2CS(=O)(=O)N(C)c3ccsc32)cc1,99*,93,x,x,x,20,15
CCCCn1c(N)c(N(CC(C)C)C(=O)C2CC(=O)N(CCc3ccccc3)C2)c(=O)[nH]c1=O (configuration not stated),-1.9,0,-3,-7,u,-4,1
O/N=C/c1ccc(-c2ccccc2OC(F)(F)F)o1,x,x,-6,-6,4876,x,x
NS(=O)(=O)c1ccc(CCNC(=O)CN2CCC(Cc3ccccc3)CC2)cc1,1.5,3,4,-7,5855,7,12
CCCCC1=NN2C(=N)CC(=O)N=C2S1,2.0,-4,-6,-7,9229,-4,1
CCn1c(COc2ccc(C)cc2)nnc1SCC(=O)NNC(=O)c1ccc(OC)cc1,1.1,1,-6,-3,2618,6,4
Cc1occc1C(=O)OCC(=O)Nc1ccc(F)cc1,8.0,-2,-6,1,2630,7,10
CCc1ccc2c(c1)C1(NN=C(c3ccccc3)S1)C(=O)N2 (configuration not stated),93*,96*,48,15,2554,10,20
COCCNC(=O)c1ccc(NS(=O)(=O)c2cc(C)ccc2C)cc1,6.3,-6,6,0,11446,13,2
O=C(N/N=C/c1ccc(F)cc1)c1c(O)c2ccccc2[nH]c1=O,x,x,10,-63,2118,x,x
COc1cc(NC(=O)c2ccc(Br)o2)ccc1NC(=O)c1ccccc1Cl,9.0,-7,8,-3,8007,-10,2
O=C(O)CCc1ccc(-c2ccc(Cl)cc2)n1CC(=O)Nc1ccccc1,6.7,31,-4,-5,4164,1,7
CCn1c(C(=O)O)c(S(=O)(=O)c2ccc(Cl)cc2)c2ccccc21,3.8,4,-4,-17,3498,-11,5
CC(C(=O)Nc1ccccc1Cl)N(c1ccccc1)S(C)(=O)=O (configuration not stated),4.7,-5,5,-85,4030,9,14
CSC(=C[N+](=O)[O-])Nc1ccc(C)cc1,4.8,-6,x,x,x,8,4
CC(=NNC(=O)CSc1nc2ccccc2n1C)c1ccco1,2.8,5,x,x,x,7,-5
CC1(C)C2CC=C(C=NNC(=O)c3ccc(O)cc3)C1C2 (configuration not stated),-0.3,12,x,x,x,12,9
Cc1cc(C)n2nc(SCCOc3ccccc3F)nc2n1,7.1,9,-12,-30,4291,17,7
SMILES,RN4220 kill,ugtP null kill,BJeLR viability,PrP 5UTR inh,Bead autofluor,Mtb hypoxia inh,Mtb hypoxia inh growth
COc1cccc(OC)c1C(=O)NC(=O)Nc1c(F)c(F)c(F)c(F)c1F,29,16,5,-26,6325,0,1
Oc1ccc(C(=S)N2CCN(c3cccc(Cl)c3)CC2)cc1,0.8,2,x,-2,3347,-1,-8
O=C(NCc1cccc(Cl)c1)c1ccc2nc[nH]c2c1,3.6,2,2,-3,2462,-8,-3
CCOC(=O)CSC1=C(C#N)C(=O)NC2(CCCCC2)S1,-2.1,2,11,-44,2803,x,x
CC(=O)Nc1cc(C(=O)N(C)Cc2ccco2)ccc1Sc1ccc(Cl)cc1,3.4,0,-4,-18,2269,3,9
Cc1cc(C)c(S(C)(=O)=O)c(=O)[nH]1,-3.7,-3,1,-18,2587,-5,-14
Cc1cccc(OCCCC(=O)Nc2nnc(C3CCCO3)s2)c1C (configuration not stated),5.9,5,-6,-18,6903,7,3
N=c1oc2ccc([N+](=O)[O-])cc2cc1C(=O)NCc1ccccc1,57,30,-23,-27,3955,8,2
Cc1nnc(SCC(=O)NC23CC4CC(CC(C4)C2)C3)s1,3.2,0,-5,-25,4448,1,-3
CCC(=O)Nc1c2c(nn1-c1ccccc1C)CSC2,3.2,4,-1,-23,5184,5,11
COc1cc(/C=C/C(=O)O)cc(S(=O)(=O)Nc2ccccc2C(=O)NCc2ccco2)c1OC,0.5,-3,x,10,3022,-1,4
CCOC(=O)c1c(-c2cccs2)csc1NC(C)=O,15,12,1,-17,2471,15,8
O=C(COC(=O)/C=C/c1ccc(Cl)cc1)NC1CC1,1.5,0,x,-11,u,8,1
CCN1C(=S)SC(=O)C1=C1C=C(C)N(CCO)C(C)=C1,3.0,2,-9,-129,10252,4,2
COc1ccc(NC(=O)c2sc3nc(N4CCCC4)c4c(c3c2N)CC(C)(C)OC4)c(OC)c1,x,x,-7,-2,5127,x,x

# Screening data (PubChem BioAssay)
